# Bioassay records (PubChem)
# Cruzain noTriton: cruzain (T. cruzi) inhibition without detergent | P25779 | Potency, µM, for the others: max response, negative = inhibition, most hits filed as inhibitors | purified cruzain, Z-FR-AMC fluorescence, no detergent | actives 2.3% (n = 200,000); active = well fitted curve in the direction sought with a large enough effect; inconclusive = small, poorly fitted or top-dose-only effect, or another doubt; inactive = no such curve, though single readings can be large; an effect the other way counts as inactive or inconclusive;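 note: plate controls were enzyme without inhibitor for no effect and buffer without enzyme for full effect; nearly all actives have a fitted effect of over 40% in size; top concentration of the series not given in the record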
# Target sequence (P25779 123-467 limits assumed): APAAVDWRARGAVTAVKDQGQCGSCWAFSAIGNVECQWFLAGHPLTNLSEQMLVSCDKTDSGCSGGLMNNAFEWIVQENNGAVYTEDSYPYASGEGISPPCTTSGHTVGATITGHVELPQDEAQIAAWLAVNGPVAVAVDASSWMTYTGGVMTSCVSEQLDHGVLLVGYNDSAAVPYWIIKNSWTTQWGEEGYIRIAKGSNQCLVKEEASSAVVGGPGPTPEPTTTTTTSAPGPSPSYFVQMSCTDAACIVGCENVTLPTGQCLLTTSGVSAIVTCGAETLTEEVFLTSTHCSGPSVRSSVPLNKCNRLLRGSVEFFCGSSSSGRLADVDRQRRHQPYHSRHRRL
#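 Detergent-free condition (0.00005% Triton X-100) in acetate buffer pH 5.5 with DTT. 1.5 nM enzyme and compound were pre-mixed 15 min, then 2 uM Z-FR-AMC substrate added; reaction progress from fluorescence change between first and third reads (60 s).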
# 2A StopGo: FMDV 2A StopGo reporter, luciferase signal. Potency, µM (highest dose often 57.9 µM), without a hit: at the highest dose signal change, negative = less light. human cells with a luciferase reporter of 2A StopGo recoding; control for the full effect not named in the record. actives 1.2% (n = 410,000). AID 1159524; active = well fitted falling curve with a large enough effect; inconclusive = small, poorly fitted or top-dose-only effect; inactive = no such curve, though single readings can be large or run the other way; tested in HEK293T cells; note: % is set by controls: 0 for no effect and ±100 for the full control effect; nearly all actives have a fitted effect of over 45% in size; luciferase light after 4 h
# RE007 growth inh: less growth of the S. pombe RE007 Vpr strain. S. pombe RE007 Vpr strain, BacTiter-Glo ATP luminescence, 24 h; control for the full effect not named in the record. Potency, µM (top dose mostly 92.2 µM), inactives show top-dose activity change, negative = less growth. actives 0.21% (n = 360,000). AID 651644; active = well fitted falling curve with a large enough effect; inconclusive = small, poorly fitted or top-dose-only effect; inactive = no such curve, though single readings can be large or run the other way;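 note: % is set by controls: 0 for no effect and ±100 for the full control effect; nearly all actives have a fitted effect of over 50% in size; the assay follows cell death caused by Vpr and the record does not say whether a fall means rescue or toxicity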
#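 Fission yeast RE007 carrying one integrated HIV-1 vpr copy, seeded at OD 0.01 in PMG+AL medium with 23 nL pinned compound. Grown 24 h at 30 degrees; viability read by BacTiter-Glo luminescence after 5 min.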
# NS1 function inh: inhibitors of influenza NS1 protein function | S. cerevisiae slowed by influenza A NS1, growth recovery by OD600 | actives 0.4% (n = 270,000) | Potency, µM (top dose mostly 46.1 µM), without a hit: at the top dose activity, positive = more growth; note: actives are rising curves; nearly all actives have a fitted effect of over 50% in size
#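 S. cerevisiae expressing influenza A NS1, grown in glucose, washed, then diluted 1:100 into pH 6.0 -URA galactose medium with 23 nl compound. Growth recovery read as OD600; NS1-free strain serves as control.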
# Lassa entry inh: inhibitors of Lassa virus binding or cell entry; Lassa virus pseudotype entry inhibition, cell reporter; control for the full effect not named in the record; actives 1.2% (n = 300,000); Potency, µM (highest dose often 37.9 µM), for the others: at the highest dose activity change, negative = inhibition, usual class: inhibitors; AID 540256; active means well fitted inhibition curve with a large enough effect; inconclusive means small, poorly fitted or top-dose-only effect, or effect the other way; inactive means flat fitted curve, though single readings scatter; tested in HEK293 cells; note: % is set by controls: 0 for no effect and ±100 for the full control effect; nearly all actives have a fitted effect of over 50% in size; luciferase read-out
# SARS PLP yeast: blocks SARS-CoV papain-like protease in a yeast assay; S. cerevisiae expressing SARS-CoV PLpro, growth rescue; control for the full effect not named in the record; Potency, µM (highest dose often 32.9 µM), for inactives: at the top dose activity, positive = growth rescue; actives 0.19% (n = 330,000); note: 0% is about no effect; nearly all actives have a fitted effect of over 55% in size; growth read by luminescence after 48 h
# Cruzain Triton: inhibitors of Trypanosoma cruzi cruzain with detergent | purified cruzain, Z-FR-AMC fluorescence, 0.01% Triton | P25779 | actives 0.43% (n = 200,000) | Potency, µM, without a hit: max response, negative = inhibition, actives largely listed as inhibitors | AID 1478; active = well fitted curve in the direction sought with a large enough effect; inconclusive = small, poorly fitted or top-dose-only effect, or another doubt; inactive = no such curve, though single readings can be large; an effect the other way counts as inactive or inconclusive;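 note: plate controls were neutral wells for no effect and buffer without enzyme for full effect; nearly all actives have a fitted effect of over 40% in size; top concentration of the series not given in the record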
#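 Enzyme 1.5 nM, Z-FR-AMC 2 uM, NaOAc 100 mM pH 5.5, DTT 5 mM, Triton X-100 0.01%; 15 min RT compound preincubation; kinetic ex360/em450, 60 s delta.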
# Marburg entry inh: inhibitors of Marburg virus binding or cell entry. Marburg virus pseudotyped entry inhibition, cell reporter; control for the full effect not named in the record; about a third of the inactives were read at about 46 µM. Potency, µM (titrated, usually from 37.8 µM), without a hit: at the top dose activity change, negative = inhibition, usual class: inhibitors. actives 1.8% (n = 300,000); active = well fitted inhibition curve with a large enough effect; inconclusive = small, poorly fitted or top-dose-only effect, or effect the other way; inactive = flat fitted curve, though single readings scatter; tested in HEK293 cells; about a fifth of its hits are not listed in these tables; note: % is set by controls: 0 for no effect and ±100 for the full control effect; luciferase read-out
# * = called active by the depositor; ? = inconclusive; . = not tested or not shown; [ ] = remark or other dose. Unless noted, calls come from the whole dose curve; as a rule, active means well fitted rising curve with a large enough effect; inconclusive means small, poorly fitted or top-dose-only effect; inactive means no such curve, though single readings can be large or run the other way. Potency is the fitted concentration of half-maximal effect. Random draw from the library; about 4.8% have a hit in one of these screens.
SMILES,Cruzain noTriton,2A StopGo,RE007 growth inh,NS1 function inh,Lassa entry inh,SARS PLP yeast,Cruzain Triton,Marburg entry inh
C=CCN(C(=O)c1csnn1)C(C(=O)NCc1ccccc1)c1cccs1 (stereo not given),.,8%,-19%,-13%,?,-2%,.,-28%[46.1 µM]
COc1cccc(C(=O)N/N=c2\oc3c(OC)cccc3cc2C(=O)NCc2ccccc2)c1,?,4%,12%,18%,9%,0%,-4.6%,-2%
COc1ccc2nc(NC(=O)c3nc(S(=O)(=O)Cc4ccccc4)ncc3Cl)sc2c1,-7%,25µM*,.,.,?,.,-5.7%,?
O=C(c1coc(=O)c(Br)c1)N1CCC(C(O)(c2ccccc2)c2ccccc2)CC1,.,-24%,2%,4%,-8%,1%,.,?
O=c1c2ccccc2c(/C=N/n2cnnc2)c(O)n1-c1ccccc1F,14%,-21%,-14%,-99%,26%,-8%,-12%,25%
O=C(O)COCC(=O)Nc1ccc(Oc2ncnc3cc(Cl)ccc23)nc1,.,-1%,4%,2%,15%,2%,.,24%[14.2 µM]
CN(C)S(=O)(=O)N1CCN(c2ccccc2)CC1,3%,15%,3%,1%,2%,4%,2.3%,8%
Cc1ccc(C(C(=O)NC(C)(C)C)N(C(=O)c2csnn2)C2CC2)cc1 (stereo not given),2%,-12%,23%,-1%,10%,11%,-2.5%,-6%
Cc1ccc(N(CC(=O)Nc2cccc(N(C)S(C)(=O)=O)c2)S(C)(=O)=O)cc1,13%,0%,-2%,-3%,0%,23%,-1.3%,-4%
CC(C)(C)OC(=O)NCCc1n[nH]c(=S)o1,.,-3%,-8%,7%,-4%,2%,.,15%
Fc1ccc(C2=NN(c3ccccc3)C(c3ccco3)C2)cc1 (stereo not given),.,-8%,-15%,-7%,.,-2%,.,.
Cc1cccc(C(=O)NC(NC(=S)Nc2ccc(S(N)(=O)=O)cc2)C(Cl)(Cl)Cl)c1 (stereo not given),25µM*,-14%,-15%,28%,2%,3%,13µM*,4%
COC(=O)C1=C(C(=O)OC)[C@@H]2N(C)c3ccc(OC)cc3[C@@]23C[C@@H](C(=O)OC)N(S(=O)(=O)c2ccc([N+](=O)[O-])cc2)C3=N1,.,-13%,0%,-2%,.,16%,.,.
CCn1c(NCc2cc(OC)c(OC)c(OC)c2)nc2ccccc21,.,-20%,-19%,12%,-13%[46.1 µM],18%,.,8%[46.1 µM]
Cc1ccc(-c2nnc(N3CCN(C(=O)COc4ccccc4)CC3)c3ccccc23)cc1,9%,?,1%,-78%,?,-26%,-3.7%,?
COc1ccc2c(c1)nc(N)n2Cc1ccccc1,-12%,0%,-6%,?,-11%,-3%,-4.9%,?
CC(=O)Nc1ccc(S(=O)(=O)Nn2cnnc2)cc1,.,22%,-13%,.,4%[46.1 µM],4%,.,?
CCS(=O)(=O)N1CCN(C(=O)c2cccnc2)CC1,4%,-6%,-6%,-8%,10%,2%,12%,1%
CN(CC(=O)Nc1cccc(F)c1)C(=O)c1ccc(COc2ccccc2)o1,.,-4%,-2%,.,0%,-2%,.,?
CCCC(C(=O)c1ccccc1)n1cncn1 (stereo not given),3%,-17%,-5%,-1%,1%,-6%,2.2%,2%[46.1 µM]
Cc1ccc(SC2=C(Sc3ccc(C)cc3)C(=O)c3ccccc3C2=O)cc1,.,25µM*,-13%,5%,11%[46.1 µM],-6%,.,2%[46.1 µM]
O=C(CN(c1ccccc1)S(=O)(=O)c1ccccc1[N+](=O)[O-])NN=C1CCCCCCC1,-3%,.,-13%,1.3µM*,-21%,3%,-8.1%,-9%
Cn1c(SCc2ccc(C#N)cc2Cl)nc2ccccc21,-2%,.,-20%,-12%,?,-13%,-0.9%,-25%
O=C1c2ccccc2-c2onc3c(NCCO)cc(NC4CCCCC4)c1c23,?,?,.,.,-20%[46.1 µM],.,-5.6%,-43%[46.1 µM]
CCCN1C(=O)c2ccc(C(=O)Nc3ccc4c(c3)OCO4)cc2C1=O,.,25%,12%,2%,-5%,-4%,.,16%

# Going on with the list:
SMILES,Cruzain noTriton,2A StopGo,RE007 growth inh,NS1 function inh,Lassa entry inh,SARS PLP yeast,Cruzain Triton,Marburg entry inh
C#C[C@]1(OC(C)=O)CCC2C3CCC4=CC(=O)CC[C@@H]4C3CC[C@@]21C (stereo not given in full),.,?,11%[18.4 µM],-33%,.,-8%,.,.
O=C(COC(=O)c1cccc(Cl)c1)Nc1cc(S(=O)(=O)N2CCOCC2)ccc1N1CCOCC1,.,-16%,-16%,.,18%,.,.,-2%
Cn1c(N)c(C#N)c2c(c1=S)COC(C)(C)C2,-4%,-20%,-4%,13%,14%,-3%,-4.3%,-6%
O=C(COc1ccc(/C=N/NC(=O)c2ccccc2O)cc1)Nc1ccccc1,.,-24%,-2%,2%,3%[46.1 µM],0%,.,-17%[46.1 µM]
CCOc1cc2c(cc1OCC)C(c1ccc(OC)cc1)N(c1ccccc1)C(=O)C2 (stereo not given),?,-4%,1%,1%,-14%,-18%,-5.5%,16%
Cc1occc1C(=O)NNC(=O)COc1ccc(Br)cc1Br,?,43%[activator],-8%,-5%,7%,-4%,0.3%,-1%
CNC(=S)Nc1ccc(Br)cc1,?,28%,1%,-5%,24%,14%,-3.4%,?
O=C(Cn1c2c(c(-c3ccccc3Cl)cc1=O)CCC2)NCC1CCCO1 (stereo not given),.,-9%,8%,4%,-3%,0%,.,?
Nc1nc(COc2ccccc2C=O)nc(Nc2ccccc2)n1,.,9%,9%,-3%,5%,-1%,.,-7%
CC1CCN(CCCCOc2ccc(Br)cc2)CC1,-3%,-20%,9%,-4%,1%,-38%,1.5%,?
COc1cn(CC(=O)Nc2cc(C)cc(C)c2)c(CN2CCCCC2)cc1=O,-8%,-10%,.,.,0%[46.1 µM],.,1.3%,.
CC(=O)Nc1ccc(NC(=O)COC(=O)c2ccc(S(=O)(=O)NCc3ccco3)cc2)cc1,.,8%,-19%,.,-13%[46.1 µM],1%,.,3%[46.1 µM]
CCn1c(=NC(=O)CSCC(=O)Nc2nccs2)sc2ccccc21,7%,-10%,3%,5%,-6%,2%,0.3%,3%
CCOc1cc(N2CCOCC2)c(OCC)cc1NC(=O)c1cc(C)cc(C)c1,.,?,-17%,.,?,-1%,.,-12%[46.1 µM]
CCOC(=O)C1SC2(C(F)(F)C(F)F)CC1(O)c1c(c(OC)c3occc3c1OC)O2 (stereo not given),11%,?,8%,1%,18%,-14%,-7.1%,4%
CCn1c(CNc2ccc(F)cc2)nnc1SCC(=O)N1CCCc2ccccc21,16%,0%,-4%,-4%,-12%,-2%,1.3%,5%
OC(CCN1CCCCC1)c1ccc(-c2ccccc2)cc1 (stereo not given),.,11%,-4%,2%,.,-2%,.,.
O=C(c1c(F)cccc1F)N1CCCC(c2nc(-c3ccc(Cl)cc3)no2)C1 (stereo not given),.,1%,4%,-24%,.,-14%,.,.
CC(=O)Nc1ccc(S(=O)(=O)Nc2cc(C)cn(Cc3ccc(C)cc3)c2=O)cc1,.,-6%,-5%,-9%,.,-5%,.,-3%[46.1 µM]
Cc1ccc(NC(=O)C2CCN(C(=O)NC3CCCCC3)CC2)c(C)c1,0%,45%[activator],-3%,4%,0%,-3%,3.9%,2%
Cc1cc(-c2ccccc2C(=O)Nc2ccccc2O)on1,.,27%,-1%,2%,-20%[46.1 µM],1%,.,-1%[46.1 µM]
CCn1nc2cc(C(=O)NCc3cc(C(F)(F)F)cc(C(F)(F)F)c3)ccc2c1OC,?,-21%,1%,1%,.,2%,-2.9%,.
c1ccc(-c2nccc(-c3ccc4c(c3)OCO4)n2)cc1,.,24%,-18%,-3%,4%[46.1 µM],-5%,.,1%[46.1 µM]
O=C(Nc1ccc(-c2ccco2)cc1)C1CCCN(Cc2ccc(CO)o2)C1 (stereo not given),.,-8%,-6%,8%,.,2%,.,.
CCC(=O)OCC(=O)N=c1sccn1Cc1ccc(C)cc1,.,-25%,14%,20%,.,1%,.,.

# Brought forward from above: 3 entries, then new ones.
SMILES,Cruzain noTriton,2A StopGo,RE007 growth inh,NS1 function inh,Lassa entry inh,SARS PLP yeast,Cruzain Triton,Marburg entry inh
c1ccc(-c2nccc(-c3ccc4c(c3)OCO4)n2)cc1,.,24%,-18%,-3%,4%[46.1 µM],-5%,.,1%[46.1 µM]
O=C(Nc1ccc(-c2ccco2)cc1)C1CCCN(Cc2ccc(CO)o2)C1 (stereo not given),.,-8%,-6%,8%,.,2%,.,.
CCC(=O)OCC(=O)N=c1sccn1Cc1ccc(C)cc1,.,-25%,14%,20%,.,1%,.,.
Cc1cc(C)cc(-n2nnc(C(=O)NCc3ccccc3)c2N)c1,5%,8%,-2%,-1%,19%,-1%,3.1%,6%
O=c1c2cc(NC(=S)N3CCC(N4CCCCC4)CC3)ccc2nc2n1CCCCC2,.,-16%,18%,.,4%,-6%,.,-25%
O=C1C(=O)N(c2ccccn2)C(c2ccc(Br)cc2)/C1=C(/O)c1ccc(Br)cc1 (stereo not given),.,-18%,8%,-17%,.,2%,.,.
Cc1ccc(NC(=O)c2cc3cc(C)ccc3n2C)cc1,-4%,18%,.,.,16%[46.1 µM],.,-0.3%,?
O=C(O)c1cccc(-c2nnn(Cc3ccccc3)n2)c1,-2%,-10%,-23%,-13%,?,3%,-0.5%,?
COc1ccc(-n2nc(C(=O)Nc3ccccn3)c3c4ccccc4n(C)c3c2=O)cc1,-7%,-6%,.,.,10%[46.1 µM],.,-1.3%,?
CCOC12CC(C)(C)CC(C)(CC3=C1C(=O)CC(C)(C)C3)C2 (stereo not given),10%,-14%,15%,-15%,4%,-1%,-3.2%,0%
COc1ccc(CNC(=S)Nc2cccc(OC)c2)cc1,.,28%,2%,10%,?,20%,.,?
O=C(Cc1cn(-c2ccccc2)nc1-c1ccccc1)N1CCCCC1,.,-14%,9%,-6%,1%[46.1 µM],0%,.,?
C[N+]1(CN2C(=O)C3C4C=CC(C4)C3C2=O)CCCCC1 (stereo not given),.,9%,-18%,1%,.,-1%,.,.
